Screening data from PubChem.
Sfp inh: Sfp phosphopantetheinyl transferase inhibition. Q9F4F7. Biochemical Sfp PPTase activity, qHTS. Potency, µM, for inactives: max response, negative = inhibition, usual class: inhibitors. 310,000 tested, 3.5% active; active = well fitted inhibition curve with a large enough effect; inconclusive = small, poorly fitted or top-dose-only effect, or another doubt; inactive = no such curve, though single readings can be large or run the other way;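 also: the enzyme is Sfp with the accession as filed and its product quenches rhodamine fluorescence; potency is read from the fitted curve at half-maximal effect; 0% = enzyme reaction without inhibitor and -100% = no enzyme wells; top concentration of the series not given in the record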
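Sfp 15 nM + cpd, 15 min RT; start w/ rhodamine-CoA 5 uM, BHQ-2-YbbR 12.5 uM (final); 50 mM Hepes pH 7.6, 10 mM MgCl2, 0.01% NP-40, 0.01% BSA; read 525/598 nm at 0 and 30 min.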
gsp antag: gsp mutant antagonism | gsp-mutant cells, cAMP HTRF, 30 min; control for the full effect not named in the record | Potency, µM (doses to about 76.9 µM), for inactives: at the highest dose activity change, negative = inhibition, usual class: inhibitors | 340,000 tested, 0.4% active | AID 624288; active = falling curve of any shape with a large fitted effect; inconclusive = falling curve, mostly with a smaller effect; inactive = flat or rising curve; cell line not stated here;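 also: intracellular cAMP measured with PDE inhibitor Ro 20-1724 present during compound exposure; potency is read from the fitted curve at half-maximal effect; % is scaled to controls: 0 for no effect and ±100 for the full control effect; nearly all actives have a fitted effect of over 65% in size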
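Cells in G418 medium, seeded 16-24 h, 37C; buffer exchange to DPBS + 1 mM CaCl2, 0.5 mM MgCl2, 0.05% BSA; cpds in DMSO + […] (300 uM stock), 30 min 37C; HTRF cAMP detection.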
gsp agonist: activates gsp, the McCune-Albright syndrome mutation; gsp mutant cells, cAMP HTRF, 30 min; control for the full effect not named in the record; Potency, µM (doses to about 76.9 µM), inactives show at the top dose activation (cAMP increase), usual class: activators; 340,000 tested, 0.13% active; AID 624287; active = well fitted activation curve with a large enough effect; inconclusive = small, poorly fitted or top-dose-only effect, or another doubt; inactive = no such curve, though single readings can be large or run the other way; cell line not stated here;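 also: phosphodiesterase inhibitor Ro 20-1724 added with compounds to block cAMP breakdown; potency is read from the fitted curve at half-maximal effect; nearly all actives have a fitted effect of over 60% in size; about a fifth of the inactives were tested at one dose only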
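Cells in DMEM/10% FBS with G418 were pretreated with compounds in DMSO plus […] (300 uM stock) for 30 min at 37C. cAMP was measured by HTRF (cAMP-d2 plus anti-cAMP antibody-K) after 30 min at room temperature.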
TRPML1 inh: inhibitors of human TRPML1 channel; Q9GZU1; activity change, negative = inhibition, % (no concentration beside the values); 390,000 tested, 0.02% active; TRPML1-inducible cells, Ca2+ dye fluorescence, FDSS; active compounds read low; inhibition of EC80 agonist-evoked calcium signal; in the data active means activity change below about -50%; inconclusive means about -30% to -50%; inactive means above about -30%;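 also: stimulus is agonist 54-4 at its EC80 concentration; % is scaled to controls: 0 for no effect and ±100 for the full control effect; compound concentration not given in the record; the text of the record puts the active cut at -80%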
Target sequence (Q9GZU1 whole entry, looked up): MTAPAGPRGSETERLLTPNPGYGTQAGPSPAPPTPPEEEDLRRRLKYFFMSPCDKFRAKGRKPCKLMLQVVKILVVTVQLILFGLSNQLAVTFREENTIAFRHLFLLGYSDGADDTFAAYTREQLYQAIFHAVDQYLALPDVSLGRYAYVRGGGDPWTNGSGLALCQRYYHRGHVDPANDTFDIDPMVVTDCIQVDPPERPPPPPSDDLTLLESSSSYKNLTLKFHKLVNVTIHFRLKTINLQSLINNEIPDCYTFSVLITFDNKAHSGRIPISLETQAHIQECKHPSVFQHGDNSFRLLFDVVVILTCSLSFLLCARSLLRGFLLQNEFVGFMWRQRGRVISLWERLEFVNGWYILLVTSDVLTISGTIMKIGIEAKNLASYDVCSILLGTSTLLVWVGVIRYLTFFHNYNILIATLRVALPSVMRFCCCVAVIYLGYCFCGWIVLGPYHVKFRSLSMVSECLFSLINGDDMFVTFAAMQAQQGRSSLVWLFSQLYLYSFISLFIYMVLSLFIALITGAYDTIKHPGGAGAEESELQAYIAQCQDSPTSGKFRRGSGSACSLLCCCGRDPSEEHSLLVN
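Calcium fluorescence in TRPML1-DL cells induced overnight with Tet: a 110 s read after compound pin addition, then a 110 s antagonist read after challenge with 54-4 at 4 uM final (EC80).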
TRPV1 potentiator: potentiators of human vanilloid receptor 1 (TRPV1) | Q8NER1 | TRPV1-expressing cells, Fluo-8 calcium influx, capsaicin EC20 potentiation; host cell line not named in the record; control for the full effect not named in the record | potentiation, % at 8.33 µM | 320,000 tested, 0.02% active | AID 540277; active means potentiation above 80%; inconclusive means 30% to 80%; inactive means below 30%; also: 0% is about no effect
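Fluo-8 calcium influx in TRPV1-expressing cells, kinetic read (ex 480/em 520 nm). Compound added and read 3 min for agonist activity, followed by capsaicin at EC20 final and 2 min further read for enhancement.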
Menin MLL FP FL: menin-MLL binding inhibition, fluorescein peptide; Fluorescence polarization, fluorescein-MLL peptide displacement from menin; 290,000 tested, under 10 active; FP activity change, % at 61.4 µM; inconclusive = falling polarisation curve, or a change in total fluorescence; inactive = total fluorescence flat and polarisation flat or rising; no compound was filed as active; the % refers to the polarisation; negative = inhibition;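 also: % of control where 0% means no effect; inhibitors lower the polarisation; unlabelled MLL peptide was the positive control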
ClpP mod: qHTS Assay for Activators of ClpP | purified B. subtilis ClpP, FRET peptide cleavage, 20 min | Potency, µM (top dose mostly 57.5 µM), without a hit: at the top dose activity change, negative = active | AID 651965, 2013 | 340,000 tested, 1.9% active; active = well fitted falling curve with a large enough effect; inconclusive = small, poorly fitted or top-dose-only effect; inactive = no such curve, though single readings can be large or run the other way; also: potency is read from the fitted curve at half-maximal effect; the source files actives as falling curves though it sought activators and does not explain the sign; nearly all actives have a fitted effect of over 65% in size; many hits overshoot -100%
Target sequence (P80244 whole entry, looked up): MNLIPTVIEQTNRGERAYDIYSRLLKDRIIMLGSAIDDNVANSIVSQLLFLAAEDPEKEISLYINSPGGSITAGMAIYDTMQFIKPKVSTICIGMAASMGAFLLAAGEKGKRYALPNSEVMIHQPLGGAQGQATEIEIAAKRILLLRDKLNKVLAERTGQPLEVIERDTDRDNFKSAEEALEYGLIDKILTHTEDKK
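Purified B. subtilis ClpP, 10 microg/mL final in Tris/HCl pH8 with KCl, BSA, glycerol and Tween-20, cleaved an Abz/nitrotyrosine-quenched decapeptide. Fluorescence (ex 320, em 430) was read at 0 and 20 min at room temperature. Delta was normalized to 5.8 microM ADEP and DMSO/no-enzyme controls.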
Starred values were filed as active, the others as inactive; ? = inconclusive; · = no result given; & = joins results of further samples; [ ] = dose if it differs, or a comment.

SMILES	Sfp inh	gsp antag	gsp agonist	TRPML1 inh	TRPV1 potentiator	Menin MLL FP FL	ClpP mod
CC1CCCN(C(=O)CSc2nnc(-c3cccnc3)n2C2CCCCC2)C1 (stereo not drawn)	24%	-3%	-4%	-4	-4	4.0	0.2%
Cc1csc(NC(=O)c2nn(C)c(C)c2[N+](=O)[O-])n1	-2%	7%	-30%[inhibitor]	3	1	2.6	1.1%
O=C(COC(=O)c1cccnc1Cl)NCc1ccc2c(c1)OCO2	19%	5%	-39%[inhibitor]	-12	24	4.6	-0.6%
Cc1ccc(NC(=O)Cn2cncc2-c2ccc([N+](=O)[O-])cc2)cc1C	-18%	0%	?	2	-6	3.8	1.2%
COc1cccc(-n2nc3c(=O)n(Cc4ccccc4Cl)nc(C)c3c2C)c1	6%	3%	17%	6	14	1.1	-3.6%
CCCC1(C(=O)OCC)NC(c2ccc(N(C)C)cc2)C2C(=O)N(c3ccccc3)C(=O)C21 (stereo not drawn)	12%	3%	2%	5	7	2.9	-25%
COc1ccc(-n2nc3c(c2NC(=O)C2CCCC2)CS(=O)C3)cc1 (stereo not drawn)	18%	1%	-28%	-4	·	2.7	0.5%
O=C(CSc1nc2nc(-c3cccs3)cc(C(F)(F)F)c2c(=O)[nH]1)C(F)(F)F	79µM*	-3%	?	·	2	-20	3.7%
Cn1ncc2nnn(-c3ccccc3)c(=O)c21	10%	9%	?	6	-9	0.9	1.6%
CCN(CC)CCOC(=O)C(Cc1ccco1)Cc1cccc2ccccc12 (stereo not drawn)	·	9%	22%	0	·	·	·
CCCCc1nc2c(=O)[nH]c3ccccc3c2o1	-2%	-7%	12%	20	0	-0.8	-5.4%
S=C1SCN(CCc2ccccc2)CN1CCc1ccccc1	·	·	0%	-10	·	·	-1.4%
Cc1ccc(-n2c(SCC(=O)O)nc3sc4c(c3c2=O)CCCC4)cc1	21%	-27%	3%[15.4 µM]	18&-13	0	2.7	?
CC(NC(=O)c1cc(-c2ccc(Br)cc2)on1)c1ccccc1 (stereo not drawn)	15%	7%	-3%	-6	-16	3.7	-1.1%
O=C(Nc1cccnc1)c1ccc2nc(-c3ccccc3)c(-c3ccccc3)nc2c1	4%	-12%	17%	-4	8	-2.5	-10%
Cn1c(SCC(=O)Nc2ccc3c(c2)oc2ccccc23)nnc1-c1ccccc1	-6%	0%	25%	-18&2	-9	5.7	-3.1%
CC1CCN(CCCNC(=O)CCc2nnc3n(CCc4ccccc4)c(=O)c4ccccc4n23)CC1	8%	7%	-5%	23	9	-3.5	·
Cc1cc(C)nc(N2CCCC(C(=O)Nc3ccc4nc(C)c(C)nc4c3)C2)n1 (stereo not drawn)	-1%	6%	-2%	-14	?	6.4	-21%
CCCCCCCCCCCCN1C/C(=C\C(=O)OCC)c2ccccc2S1(=O)=O	-14%	1%	19%	-2	?	15	-0.9%&-1.2%
CCN1CCCC1Cn1cnc2c([nH]c3ccc(OC)cc32)c1=O (stereo not drawn)	7%	10%	-4%[15.4 µM]	15	8	3.8	·
Cn1c(SCc2cc(=O)n3cc(Br)ccc3n2)nnc1C1COc2ccccc2O1 (stereo not drawn)	-10%	7%	?	15	8	-2.1	-2.9%
O=C(Nc1cccs1)N1CCN(c2ncccn2)CC1	-23%	1%	21%	11	23	7.8	0.2%
CC1CCC(N2CCN(C(=O)c3ccccc3F)CC2)CC1 (stereo not drawn)	-13%	0%	-35%[inhibitor]	·	-5	-7.0	1.4%
NC(=O)c1c(N)sc2c1CCC2	22µM*	8%	15%	-8	3	?	·
CCCN(CCC)Cc1c(C(=O)N/N=C/c2cccs2)nnn1-c1nonc1N	2%	?	-19%	-20	-8	0.7	·
CCCc1nc(-c2ccc(-c3ccc(F)cc3)cc2)no1	12%	-10%	1%	1	-1	3.3	-21%
CN(CC(=O)Nc1cccc(F)c1)C(=O)CCc1nc2sc3c(c2c(=O)[nH]1)CCCC3	·	-17%	-6%[15.4 µM]	-9	6	·	?
CCOCc1[nH]c(=S)[nH]c(=O)c1Cc1ccc(OC(C)C)cc1	-18%	-9%	32%	40	11	3.6	0.1%
CCC(=O)N1N=C(c2ccc(C)o2)CC1c1ccc(OC)cc1 (stereo not drawn)	-17%	-23%	-2%	-12	-1	-1.6	-7.9%
COc1ccc(/C(N)=N/OC(=O)c2ccc(Br)o2)cc1	1%	6%	17%	29	13	-2.5	·
COc1ccc(N=NC2C(=O)N(c3ccccc3)N=C2C)cc1 (stereo not drawn)	-5%	5%	-16%	-17	-11	-7.9	-0.6%
COC(=O)c1ccc(NC(=O)C2CC(=O)OC2c2ccccc2)cc1 (stereo not drawn)	-2%	8%	-16%[15.4 µM]	2	-6	0.4	-3.3%
CC(=O)OCC(=O)[C@@]1(O)CC[C@H]2[C@@H]3CCC4=CC(=O)CC[C@]4(C)[C@H]3[C@@H](O)C[C@@]21C	18%	-15%&-4%	·	-15&18	-1&11	3.1	2.0%&-2.1%
O=C(O)c1ccc(COc2ccccc2/C=C2\NC(=O)N(Cc3ccc(F)cc3)C2=O)cc1	-27%	-20%	5%[15.4 µM]	1	-4	0.5	·
CCC1CCCCN1S(=O)(=O)c1ccc(C(=O)Nc2nnc(-c3ccccc3Cl)o2)cc1 (stereo not drawn)	13%	?	9%	-9	25	2.7	0.4%
Oc1ccc2ccccc2c1N=Nc1ccc(F)cc1	10%&16%	2%	-9%[15.4 µM]	-9	-6&-2	1.0&1.8	·
CC(=O)NC(CC(=O)OCC(=O)c1c(N)n(C)c(=O)n(C)c1=O)c1ccccc1 (stereo not drawn)	21%	-10%	7%[15.4 µM]	0	10	5.3	·
CCc1ccc(S(=O)(=O)c2cn(C)c3cc(OC)c(OC)cc3c2=O)cc1	2%	-8%	2%	12&-7	-5	·	?
Cc1ccc(S(=O)(=O)N2CCC(C(=O)N3CCC3)CC2)cc1	5%	3%	15%	25	1	·	-1.3%
COc1cc(C(=O)Nc2nnc(C3CC3)s2)ccc1OCc1c(C)noc1C	17%	-75%	15%[15.4 µM]	-4	9	-0.6	·
C=CC[C@H](CC(=O)N(CCO)Cc1ccccc1)C(=O)N[C@H](COC(=O)[C@@H](CC=C)CC(=O)OC(C)(C)C)c1ccccc1	·	-18%	·	-4	·	·	0.6%
O=C(NC1CCCC1)C(c1ccncc1)N(C(=O)c1ccco1)c1ccccc1 (stereo not drawn)	7%	-17%	8%[15.4 µM]	1	19	-3.5	·
COc1ccc(NC(=O)COC(=O)C2CC(=O)N(Cc3ccc(C)cc3)C2)cc1 (stereo not drawn)	7%	·	15%[15.4 µM]	14	-11	-2.2	·
CCn1ccc(C(=O)Nc2ccsc2C(=O)OC)n1	8%	7%	2%	-5	-12	-0.4	-1.8%
CCS(=O)(=O)c1ccc(OC)c(N=Nc2ccc(O)c3ncccc23)c1	-19%	3%	-44%[inhibitor]	10	-6	2.6	·
CSc1nc(Cc2ccccc2)cc(=O)[nH]1	20%	-13%	2%	-9	?	-0.9	·
CC(C)CC(=O)NC(=S)Nc1ccc(S(=O)(=O)NC(C)(C)C)cc1	-2%	1%	19%	11	17	5.5	-4.0%
CC(C)(C)c1ccc(NC(=O)c2ccc3c(c2)S(=O)(=O)c2ccccc2C3=O)cc1	·	0%	8%	9	·	·	-1.4%
COc1ccc(C2CC(=O)Oc3cc(O)cc(O)c32)cc1 (stereo not drawn)	18%	-8%	-46%[inhibitor]	3	5	-1.7	-0.8%
CC(C)N1CC(COc2ccccc2Cl)OC1=O (stereo not drawn)	·	2%	20%[15.4 µM]	20	·	·	·
CNCCOc1nc(N2CCOCC2)nc(C)c1[N+](=O)[O-]	5%	6%	?	-8	0	1.3	·
O=C1OCCC1Sc1ncnc2sc3c(c12)CCC3 (stereo not drawn)	11%	-25%	?	25	-6	2.0	2.6%
Cc1cc(=O)oc2cc(O[C@@H]3O[C@H](CO)[C@@H](O)[C@H](O)[C@H]3O)ccc12	7%	9%	11%	-19	21	-8.7	3.7%
O=C(OCC1OC(n2ccc(=O)[nH]c2=O)C(Cl)C1O)c1ccccc1 (stereo not drawn)	14%	-6%	-10%[15.4 µM]	7	4	?	1.1%
Cc1sc2ncn(CC(=O)NCCCC(=O)N3CCN(Cc4ccc5c(c4)OCO5)CC3)c(=O)c2c1C	24%	-5%	1%[15.4 µM]	10	2	0.2	-1.1%
CN(CC(=O)Nc1ccc(F)cc1)S(=O)(=O)c1ccc2c(c1)c(=O)n(C)c(=O)n2C	12%	-4%	1%	-4	-13	·	-6.9%
COc1ccc(C2C(C#N)=C(N)OC3=C2C(=O)CC(C)C3)c(OC)c1OC (stereo not drawn)	2%	-8%	27%	-8	-8	-2.1	-3.5%
COc1ccc(C)cc1N=Nc1ccc(O)c2ncccc12	5%	15%	-37%[inhibitor]	1	-6	-11	1.6%
CCn1cc(C(=O)N2CCCC(C(=O)c3ccc4ccccc4c3)C2)cn1 (stereo not drawn)	2%	-5%	-12%	15	-22	1.5	-28%
O=C1NCCOC(=O)[C@H](Cc2ccc(F)cc2)C/C=C\C[C@H]1CC(=O)N(CCO)Cc1ccccc1	·	-1%	·	30	·	·	1.3%
Next records follow:
SMILES	Sfp inh	gsp antag	gsp agonist	TRPML1 inh	TRPV1 potentiator	Menin MLL FP FL	ClpP mod
CC(C)N(C(=O)[C@H]1C[C@H](CC(=O)NCCCn2ccnc2)C(=O)N2CCc3c([nH]c4cc(-c5ccco5)ccc34)[C@]12C)C(C)C	·	4%	·	6	·	·	-18%
COc1ccc(-c2c(-c3cc(OC)cc(OC)c3)n(C)c3ccc(-c4cccc5[nH]ccc45)cc23)cc1	·	2%	7%	28	-1	·	5.0%
c1cncc(CNc2ccc3c(c2)OCO3)c1	?	-14%	12%	10	6	-5.8	-9.3%
CC(C)n1c(O)c(N=NC(=O)Cn2ccc(C(F)(F)F)n2)c2ccccc21	5%	0%	10%	21	-5	0.9	-1.4%
